High-throughput results: PubChem, National Center for Advancing Translational Sciences (NCATS)
Cruzain noTriton – inhibitors of Trypanosoma cruzi cruzain without detergent. P25779. purified cruzain, Z-FR-AMC fluorescence, no detergent. Potency, µM, for inactives: max response, negative = inhibition, usual class: inhibitors. 200,000 tested, 2.3% active. AID 1476; active = well fitted curve in the direction sought with a large enough effect; inconclusive = small, poorly fitted or top-dose-only effect, or another doubt; inactive = no such curve, though single readings can be large; an effect the other way counts as inactive or inconclusive;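 also: plate controls were enzyme without inhibitor for no effect and buffer without enzyme for full effect; nearly all actives have a fitted effect of over 40% in size; top concentration of the series not given in the record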
Target sequence (P25779 123-467 limits assumed): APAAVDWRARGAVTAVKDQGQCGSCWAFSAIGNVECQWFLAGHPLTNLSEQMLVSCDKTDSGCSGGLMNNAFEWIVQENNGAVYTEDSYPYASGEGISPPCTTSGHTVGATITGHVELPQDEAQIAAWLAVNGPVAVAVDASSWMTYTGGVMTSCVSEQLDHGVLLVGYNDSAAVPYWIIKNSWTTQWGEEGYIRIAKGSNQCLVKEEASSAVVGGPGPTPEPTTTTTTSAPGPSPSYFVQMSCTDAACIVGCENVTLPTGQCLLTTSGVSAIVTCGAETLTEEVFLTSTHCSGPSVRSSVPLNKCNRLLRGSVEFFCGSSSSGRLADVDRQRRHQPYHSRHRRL
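Purified cruzain at 1.5 nM, pre-incubated 15 min with compound at room temperature in 100 mM sodium acetate pH 5.5, 5 mM DTT, 0.00005% Triton X-100. Reaction started with 2 uM Z-FR-AMC; AMC fluorescence increase over 60 s gives rate.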
2A StopGo – FMDV 2A StopGo reporter, luciferase signal; human cells with a luciferase reporter of 2A StopGo recoding; control for the full effect not named in the record; Potency, µM (top dose mostly 57.9 µM), for the others: at the top dose signal change, negative = less light; 410,000 tested, 1.2% active; active = well fitted falling curve with a large enough effect; inconclusive = small, poorly fitted or top-dose-only effect; inactive = no such curve, though single readings can be large or run the other way; tested in HEK293T cells; also: % is scaled to controls: 0 for no effect and ±100 for the full control effect; nearly all actives have a fitted effect of over 45% in size; luciferase light after 4 h
Marburg entry inh – Marburg virus entry inhibition | Marburg virus pseudotyped entry inhibition, cell reporter; control for the full effect not named in the record; about a third of the inactives were read at about 46 µM | Potency, µM (series often up to 37.8 µM), for the others: at the top dose activity change, negative = inhibition, actives largely listed as inhibitors | 300,000 tested, 1.8% active; active = well fitted inhibition curve with a large enough effect; inconclusive = small, poorly fitted or top-dose-only effect, or effect the other way; inactive = flat fitted curve, though single readings scatter; tested in HEK293 cells; about a fifth of its hits are not listed in these tables; also: % is scaled to controls: 0 for no effect and ±100 for the full control effect; luciferase read-out
Cruzain inh Det – cruzain (T. cruzi) inhibition with detergent. 200,000 tested, 0.43% active. Potency, µM, for the others: max response, negative = inhibition, hits mostly inhibitors. P25779. AID 1478. purified cruzain, Z-FR-AMC fluorescence, 0.01% Triton; active = well fitted curve in the direction sought with a large enough effect; inconclusive = small, poorly fitted or top-dose-only effect, or another doubt; inactive = no such curve, though single readings can be large; an effect the other way counts as inactive or inconclusive;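 also: plate controls were neutral wells for no effect and buffer without enzyme for full effect; nearly all actives have a fitted effect of over 40% in size; top concentration of the series not given in the record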
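Steps: dispense cruzain (1.5 nM final) in acetate buffer pH 5.5 with DTT and 0.01% Triton X-100; pin-transfer compounds; incubate 15 min RT; add Z-FR-AMC (2 uM final); read fluorescence every 30 s, using the 60 s intensity change.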
RE007 growth inh – less growth of the S. pombe RE007 Vpr strain. S. pombe RE007 Vpr strain, BacTiter-Glo ATP luminescence, 24 h; control for the full effect not named in the record. 360,000 tested, 0.21% active. Potency, µM (titrated, usually from 92.2 µM), for inactives: top-dose activity change, negative = less growth; active = well fitted falling curve with a large enough effect; inconclusive = small, poorly fitted or top-dose-only effect; inactive = no such curve, though single readings can be large or run the other way;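 also: % is scaled to controls: 0 for no effect and ±100 for the full control effect; nearly all actives have a fitted effect of over 50% in size; the assay follows cell death caused by Vpr and the record does not say whether a fall means rescue or toxicity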
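Fission yeast strain RE007, carrying one chromosomally integrated HIV-1 vpr copy, was seeded at OD 0.01 in PMG+AL medium with 23 nL pinned compound. After 24 h at 30 °C and 99% humidity, viability was read by BacTiter-Glo luminescence.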
NS1 inh – blocks influenza NS1 protein function; 270,000 tested, 0.4% active; S. cerevisiae slowed by influenza A NS1, growth recovery by OD600; Potency, µM (titrated, usually from 46.1 µM), for the others: at the highest dose activity, positive = more growth; AID 2326; also: actives are rising curves; nearly all actives have a fitted effect of over 50% in size
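OD600 was taken as the measure of yeast growth restored by compound in an NS1-expressing S. cerevisiae strain. Cells had been washed out of glucose medium and diluted 1:100 into galactose -URA medium, pH 6.0.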
SARS PLpro yeast – blocks SARS-CoV papain-like protease in a yeast assay; S. cerevisiae expressing SARS-CoV PLpro, growth rescue; control for the full effect not named in the record; Potency, µM (top dose mostly 32.9 µM), for the others: top-dose activity, positive = growth rescue; 330,000 tested, 0.19% active; AID 485353; also: 0% is about no effect; nearly all actives have a fitted effect of over 55% in size; growth read by luminescence after 48 h
Lassa entry inh – inhibitors of Lassa virus binding or cell entry; Lassa virus pseudotype entry inhibition, cell reporter; control for the full effect not named in the record; 300,000 tested, 1.2% active; Potency, µM (series often up to 37.9 µM), without a hit: at the top dose activity change, negative = inhibition, actives largely listed as inhibitors; AID 540256; active means well fitted inhibition curve with a large enough effect; inconclusive means small, poorly fitted or top-dose-only effect, or effect the other way; inactive means flat fitted curve, though single readings scatter; tested in HEK293 cells; also: % is scaled to controls: 0 for no effect and ±100 for the full control effect; nearly all actives have a fitted effect of over 50% in size; luciferase read-out
* = called active by the depositor; ? = inconclusive; / = not tested or not shown; & = joins results of further samples; [ ] = remark or other dose. Unless noted, calls follow the shape of the dose curve; as a rule, active means well fitted rising curve with a large enough effect; inconclusive means small, poorly fitted or top-dose-only effect; inactive means no such curve, though single readings can be large or run the other way. Potency is read from the fitted curve at half-maximal effect.

SMILES	Cruzain noTriton	2A StopGo	Marburg entry inh	Cruzain inh Det	RE007 growth inh	NS1 inh	SARS PLpro yeast	Lassa entry inh
CCn1cc(Cl)c(C(=O)Nc2cc(C(=O)OC)cc(C(=O)OC)c2)n1	/	-13%	?	/	-10%	2%	0%	-6%
O=C(CSc1nnc(-c2ccc(NS(=O)(=O)c3ccccc3)cc2)o1)NCC1CCCO1 (stereo not given)	3%	-12%	2%[46.1 µM]	-1.5%	24%	-5%	0%	3%
O=C(COC(=O)c1cc(S(=O)(=O)N2CCOCC2)cs1)c1ccccc1	4%	23%	15%&15%	9.1%	-14%	-2%	-1%	4%
COc1ccc(-n2c(SCC(=O)Nc3ccc(Cl)cc3)nc(O)c(Cc3ccccc3)c2=O)cc1	/	-10%	/	/	9%	?	-5%	/
O=C(O)COc1ccccc1/C=N/NC(=O)CSc1nc2ccccc2c(=O)n1-c1ccccc1	/	-7%	-3%[46.1 µM]	/	1%	3%	3%	13%
CCCOC(=O)CSC1=C(C#N)C(c2ccccc2Cl)CC(=O)N1 (stereo not given)	-7%	-21%	/	-3.5%	-1%	13%	-1%	/
Cc1nn(-c2ccccc2)c(C)c1NC(=O)COC(=O)c1cc([N+](=O)[O-])ccc1NCCO	/	-26%	?	/	9%	-6%	4%	?
CC(=O)N1CCc2cc(CNC(=O)Nc3cc(Cl)ccc3C)ccc21	-2%	-10%	/	-0.2%	/	/	/	0%[46.1 µM]
CCCCc1nc(S(=O)(=O)c2ccc(Cl)cc2)c(N2CCOCC2)o1	-10%	15%	-11%	-12%	13%	24%	13%	10%
COCC(C)n1c(C)cc(C(=O)CSc2nnc(N)s2)c1C (stereo not given)	1%	?	?	0.4%	-6%	12%	3%	?
CCN(CC)CCNC(=O)c1ccc(NC(=O)c2cc(-c3ccco3)nc3ccccc23)cc1	/	?	/	/	13%	-11%	2%	/
CN(C)C(=O)CN1C(=O)NC2(CCc3ccccc32)C1=O (stereo not given)	/	-6%	/	/	-4%	3%	0%	/
Cc1ccsc1/C=N/NC(=O)c1cc(-c2ccncc2)nc2ccccc12	?	-20%	0.58µM*	-5.2%	2%	23%	-9%	?
O=C(Nc1nc2ccccc2s1)c1cc(-c2ccccc2)nn1-c1ccccc1	10µM*	-24%	?	-1.8%	5%	?	-36%	?
CC(C)N1C2OC(C3OC4C(O3)N(C(C)C)S(=O)(=O)N4C(C)C)OC2N(C(C)C)S1(=O)=O (stereo not given)	2%	5%	2%&2%	0.3%	12%	-77%	-2%	13%
C=CCn1cccc(/C=C/C(=O)c2ccc(C(C)(C)C)cc2)c1=S	5%	25µM*	?	-9.0%	-4%	7%	-19%	16µM*
Cc1nn(Cc2ccccc2)c(C)c1NC(=O)CCC(=O)O	6%	0%	2%	13%	5%	3%	0%	?
CCn1c(CC(=O)Nc2ccc(C)c(Cl)c2)nnc1SCc1ccc(Cl)c(Cl)c1	13µM*	11%	0%	5.1%	3%	17%	10%	-3%
CCOc1ccc(OCCC(=O)Nc2cccc(S(=O)(=O)N3CCCC3)c2)cc1	/	0%	?	/	4%	/	-2%	?
C=CCSc1nc2sc3c(c2c(=O)[nH]1)CCC3	/	-5%	-6%[46.1 µM]	/	-1%	2%	1%	15%
CCCn1c(C)cc(C(=O)COC(=O)c2ccc(Cl)c(S(=O)(=O)N3CCCC3)c2)c1C	-19%	5%	-3%	-0.4%	-11%	6%	4%	-22%
CN(C)C(=O)CCSc1nnc(-c2ccncc2)o1	/	14%	12%[46.1 µM]	/	-9%	/	0%	1%
COc1ccc(/C=N/Nc2nc3ccccc3s2)cc1O	/	-67%	?	/	-12%	/	-11%	?
Clc1ccc(-c2cn3cccnc3n2)cc1	-14%	40%[activator]	11%[46.1 µM]	?	1%	-7%	1%	0%
CCOC(=O)C#CC(CCc1ccccc1)OS(N)(=O)=O (stereo not given)	/	?	/	/	4%	8%	-12%	/
O=C(Cc1ncc(C(F)(F)F)cc1Cl)N1CCN(c2cccc(Cl)c2)CC1	-14%	-12%	4%	-0.7%	-6%[3.69 µM]	-13%	-8%	8%
COc1cccc(C(=O)NC2CC3CCCC(C2)N3CC(=O)Nc2ccccc2C(F)(F)F)c1 (stereo not given)	/	-22%	11µM*	/	5%	-6%	0%	?
CCOC(=O)c1c(C)[nH]c(C)c1S(=O)(=O)N1CCCC(C(=O)NCc2ccc(N(C)C)cc2)C1 (stereo not given)	8%	24%	/	1.5%	/	/	/	3%[46.1 µM]
O=C(CCC1CCCC1)N1CCC(N2CCN(c3ccccc3)CC2)CC1	-5%	-21%	18%&18%	0.7%	-2%	-1%	0%	0%
COc1ccc(S(=O)(=O)Cc2ccc(C(=O)NCC(OC)OC)o2)cc1	/	5%	10%[46.1 µM]	/	5%	0%	1%	25%[46.1 µM]
COc1cccc(CC(=O)OCC(=O)c2cc(OC)c(OC)c(OC)c2)c1	/	-5%	-11%	/	-14%	/	0%	-8%
O=C(Nc1ccc(C(=O)N2CCCCC2)cc1)c1nsc2ccccc12	-6%	-24%	/	-5.0%	/	/	/	13%[46.1 µM]
Cc1ccc(S(=O)(=O)N2CCN(CC(=O)NCC3(N4CCOCC4)CCCCC3)CC2)cc1	/	-4%	-1%	/	1%	/	4%	17%
O=C(N/N=C/c1cccnc1)c1cccc(NC(=O)c2cccc(Br)c2)c1	/	3%	2%[46.1 µM]	/	-7%	10%	1%	6%
O=C(Nc1cc(Br)c(O)c(Br)c1)c1cccc(NC(=O)c2ccco2)c1	/	-20%	/	/	-12%	21%	3%	/
Cc1ccc(S(=O)(=O)N2CCN(C(=O)CCC(=O)NCCc3ccc(S(N)(=O)=O)cc3)CC2)c(C)c1	/	-1%	/	/	4%	1%	2%	/
CC12CC3(C)CC(C)(C1)CC(C(=O)NC(=S)N1CCCC1)(C2)C3	/	-7%	/	/	-6%	/	3%	-12%
Cc1cccc2cc(C(c3nnnn3C(C)(C)C)N(Cc3ccco3)CC3CCCO3)c(=O)[nH]c12 (stereo not given)	?	19%	?	-2.8%	2%	8%	1%	16%
CCOc1cnc(C(=O)NNC(=O)c2ccccc2Br)o1	/	6%	21%[46.1 µM]	/	2%	/	1%	10%
Cc1ccccc1NC(=O)c1ccc(OCC(=O)Nc2ccccc2F)cc1	/	-20%	/	/	4%	0%	-1%	/
Cc1cc(OCCn2c(C3CC(=O)N(Cc4ccc(F)cc4)C3)nc3ccccc32)ccc1Cl (stereo not given)	-2%	?	7%[46.1 µM]	-5.0%	/	/	/	-2%[46.1 µM]
COc1ccccc1NS(=O)(=O)c1cc(C(=O)NCC(c2ccco2)N2CCCCC2)ccc1C (stereo not given)	/	-14%	?	/	-1%	/	/	?
O=C(CSc1nccc(=O)[nH]1)Nc1ccccc1Sc1ccccc1	/	-5%	22%[46.1 µM]	/	1%	/	2%	-5%
Cc1cc(=O)oc2cc(NC(=S)NCc3cccnc3)ccc12	/	94%[activator]	/	/	5%	3%	2%	/
C=CCOc1ccc(CN(C)CC(O)COc2ccc(CCC(C)=O)cc2)cc1 (stereo not given)	/	0%	-25%[46.1 µM]	/	-3%	-8%	2%	?
O=C(O)CCSc1nnc(SCC(=O)NC2CCS(=O)(=O)C2)s1 (stereo not given)	/	-6%	18%	/	5%	/	0%	?
CCCCOc1ccc(C(=O)NCC(=O)NCC2CCCO2)cc1 (stereo not given)	/	-7%	-4%	/	-5%	9%	0%	-7%
Cc1ccc(C(=O)c2sc(Nc3ccc(F)cc3)nc2N)c(C)c1	?	9%	/	-11%	/	/	/	-6%[46.1 µM]
NC(=O)c1ccc(NC(=O)CCN=C2NS(=O)(=O)c3ccccc32)cc1	/	6%	-6%	/	-10%	/	-7%	8%[46.1 µM]
Cc1sc2ncnc(SCC(=O)NNC(=O)COc3cccc4ccccc34)c2c1C	?	7%	?	3.0%	0%	-1%	-1%	-29%
CC(C)C(=O)Nc1nnc(SCC(=O)NCc2cccs2)s1	11%	-5%	?	3.5%	6%	-2%	3%	0%
COc1cccc(S(=O)(=O)N2CCOCC2)c1	1%	?	13%	5.1%	-2%	3%	4%	-11%
NS(=O)(=O)c1ccc(C(=O)Nc2ccc(-c3nc4cccnc4s3)cc2)cc1	/	54%[activator]	/	/	-4%	4%	3%	/
O=C(CSc1ccc(Cl)cc1)N1CCN(c2c(Cl)cccc2[N+](=O)[O-])CC1	-7%	-8%	?	-11%	8%	-87%	-15%	-10%
O=C(c1ccc(F)cc1)C1CCN(C(=O)NCc2ccccc2)CC1	-14%	-26%	-3%	-2.8%	-14%	-2%	-2%	/
CCOc1ccccc1N1CCN(C(=O)c2cn(CC3CCCCC3)nn2)CC1	/	24%	1%	/	5%	-26%	-9%	-1%
Cc1ccc(-c2csc3ncn(CC#N)c(=O)c23)cc1C	/	-16%	?	/	6%	14%	2%	19%[46.1 µM]
CCn1cc(CNC(=O)C2CCC(=O)N(Cc3ccccc3F)C2)cn1 (stereo not given)	/	1%	1%[46.1 µM]	/	1%	14%	1%	-19%[46.1 µM]
O=[N+]([O-])c1cccc(S(=O)(=O)N2CCCCCC2)c1	-1%	16%	?	-4.1%	/	6%	2%	-16%
COc1ccc(C(=O)N/C(=C\c2ccccc2)C(=O)Nc2ccc(C(=O)O)cc2)cc1	/	-10%	/	/	-22%	27%	2%	/
COCC(=O)N1CCc2cc(OC)c(OC)cc2C1COc1ccc2c(C)cc(=O)oc2c1 (stereo not given)	-7%	-4%	-21%[46.1 µM]	0.8%	/	/	/	1%[46.1 µM]
Cc1c(C(=O)NCc2ccco2)oc2ccccc12	/	37%[activator]	-6%[46.1 µM]	/	-9%	-9%	-4%	2%
